Source: PubChem BioAssay (National Center for Advancing Translational Sciences (NCATS))
VDR inhibitor: blocks the human vitamin D receptor; 0.93% of 400,000 active; Potency, µM, without a hit: max response, negative = inhibition, actives largely listed as inhibitors; VDR-SRC2-3 peptide fluorescence polarization, 2 h; P11473; active = well fitted inhibition curve with a large enough effect; inconclusive = small, poorly fitted or top-dose-only effect, or another doubt; inactive = no such curve, though single readings can be large or run the other way; also: series mostly up to about 120 µM
Target sequence (P11473 whole entry, looked up): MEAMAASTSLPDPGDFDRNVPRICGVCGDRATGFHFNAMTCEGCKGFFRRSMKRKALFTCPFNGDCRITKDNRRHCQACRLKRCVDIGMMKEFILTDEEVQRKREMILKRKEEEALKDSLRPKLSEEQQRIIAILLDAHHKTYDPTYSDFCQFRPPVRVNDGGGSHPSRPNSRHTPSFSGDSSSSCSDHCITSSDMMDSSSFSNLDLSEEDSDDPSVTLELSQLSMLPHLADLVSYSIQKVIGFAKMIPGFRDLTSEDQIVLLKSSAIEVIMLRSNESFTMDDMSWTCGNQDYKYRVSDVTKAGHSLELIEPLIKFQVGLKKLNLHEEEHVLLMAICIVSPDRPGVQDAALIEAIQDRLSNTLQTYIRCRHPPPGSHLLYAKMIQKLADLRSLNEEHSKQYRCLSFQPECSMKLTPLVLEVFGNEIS
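Fluorescence polarization assay measuring small-molecule disruption of VDR binding to the coregulator peptide SRC2-3. Compounds were pin-transferred (23 nl) into the reagent mix and incubated 2 h at room temperature before reading.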
* marks the source's active call; other numbers are inactive results; ? = inconclusive; & = joins results of further samples. % is scaled to controls: 0 for no effect and ±100 for the full control effect; potency is read from the fitted curve at half-maximal effect. A portion of the library. The share of hits here may be higher or lower than overall.

SMILES | VDR inhibitor
CC(C)Cn1c(SCC(=O)NCc2ccco2)nnc1-c1ccncc1 | -24%
CCOc1ccc(CCNC(=O)COC(=O)C2CCN(S(=O)(=O)c3ccccc3)CC2)cc1OCC | 9%
CC1(C)CC(=O)C([N+](=O)[O-])=C(NCCCC(=O)O)C1 | 2%
COc1ccc(S(=O)(=O)N2CCOCC2)cc1NC(=O)C1CCCN1C(=O)c1cccs1 (centres undefined) | -5%
O=C(Nc1cccc(S(=O)(=O)N2CCCCC2)c1)C1CC(=O)N(Cc2ccccc2)C1 (centres undefined) | 3%
O=c1c(-c2ccco2)[n+]([O-])c2ccccc2n1OCc1ccccn1 | -13%
Cc1ccc(C)c(NC(=S)NC(=O)c2cncc(Br)c2)c1 | -1%
O=C(c1cc2c(=O)oc3ccccc3c2s1)N1CCN(c2cccc(Cl)c2)CC1 | 7%
CC1=NN(S(=O)(=O)c2ccc(F)cc2)C(=O)c2ccccc2O1 | -1%
C=CCn1c(-c2cccnc2Cl)nc2ccccc21 | -10%
Cc1cccc(N2CCN(CC3CCCCC3)CC2)c1C | -3%
Cc1csc(NC(=O)CSC2=NS(=O)(=O)c3ccccc3N2)n1 | 12%
O=C(COc1ccccc1Cl)N1CCCCCCC1 | -1%
CCOC(=O)c1ccc(CN(Cc2ccc(F)cc2)S(=O)(=O)c2cc(C(=O)Nc3cccc(C(F)(F)F)c3)ccc2F)cc1 | -5%
CCOc1cc(/C=C\c2nc(O)c([N+](=O)[O-])c(=O)[nH]2)ccc1OC(C)CC (centres undefined) | ?
CCn1cc(CN(C)C(=O)/C=C/c2ccc([N+](=O)[O-])cc2)c(C)n1 | -18%
O=C(CSc1nnc(-c2ccc(Cl)s2)o1)N1CCCc2ccccc21 | -4%
COc1ccc(C2C(C(C)=O)=C(O)C(=O)N2CCc2c[nH]c3ccccc23)cc1 (centres undefined) | -2%
CC(C)Nc1nc2c(S(=O)(=O)c3cccc(Cl)c3)nnn2c2ccsc12 | 2%
CCOc1cc(N2CCOCC2)c(OCC)cc1NC(=O)c1cc(S(=O)(=O)N2CCOCC2)ccc1C | 5%

Remaining list, next part:
SMILES | VDR inhibitor
O=c1[nH]cccc1-c1nc2ccccc2[nH]1 | -18%
Clc1cccc(N2CCN(Cc3ccc(Br)o3)CC2)c1 | 1%
COc1ccc(C2Nc3ccccc3C(=O)N2Cc2ccccc2)cc1 (centres undefined) | -9%
O=C(N/N=C/c1cc(Br)cs1)c1ccccc1[N+](=O)[O-] | -14%
Cc1cccc(C)c1NC(=O)CNC(=O)c1c(C)nn(-c2ccccc2)c1Cl | 15%
O=C(Nc1cccc(F)c1)C1CCN(c2nc3ccccc3[nH]2)CC1 | 11%
Cc1cccc2sc(NNC(=O)c3ccc4c(c3)OCCO4)nc12 | 1%
O=C(Nc1ccccc1C(=O)O)c1cccc(N2C(=O)c3ccccc3C2=O)c1 | -13%
O=S(=O)(NC1CC1)c1ccc2c3c(cccc13)CC2 | ?
CCCC(C(=O)NC1CCCC1)N(Cc1ccc(F)cc1)C(=O)c1snc(C(N)=O)c1N (centres undefined) | -8%
Cc1ccnc(NS(=O)(=O)c2ccc(NS(C)(=O)=O)cc2)n1 | -6%
NC(=O)/C(=C/c1ccc2c(c1)OCO2)NC(=O)c1ccco1 | 17%
COc1cccc(CNC(=O)c2cnc(-c3ccccn3)nc2C(F)(F)F)c1 | -5%
COc1ccc2nc(SCC(=O)Nc3c(C)cccc3C)[nH]c2c1 | -14%
O=C(CCCCn1c(=O)[nH]c2ccccc2c1=O)NC1CCN(Cc2ccccc2)CC1 | -10%
O=C(c1ccc(F)cc1)N1CCCC(C(=O)N2CCc3ccccc3C2)C1 (centres undefined) | -1%
NS(=O)(=O)c1ccc(NC(=O)C2CCCO2)cc1 (centres undefined) | 16%
COc1cc(-c2noc(C)c2C(=O)NCCCn2ccnc2)cc(OC)c1OC | -16%
CC(C)n1cnnc1SCC(=O)NCC(=O)Nc1ccc(F)cc1 | 5%
C#Cc1ccc(CN2CCC(C(=O)Nc3ccc(Oc4ccccc4)nc3)CC2)cc1 | 0%

Next part
SMILES | VDR inhibitor
Cc1ccc(NS(=O)(=O)c2ccc(C)c(C(=O)N3CCOCC3)c2)cc1 | 10%
CCN(CC)c1ccc(NC(=O)c2ccc3c(c2)OCO3)c(C)c1 | -5%
O=C(NNc1cccc(Cl)n1)c1ccc(Cl)cc1Cl | 12%
Cc1c(C)c2c(c(C)c1OC(=O)c1cccnc1)CC[C@@](C)(CCC[C@H](C)CCC[C@H](C)CCCC(C)C)O2 | 1%&0%
CCOC(=O)c1ccc(NS(=O)(=O)c2cc(C)ccc2OC)cc1 | -3%
Cc1ccccc1-n1nc2c(c1NC(=O)c1c(-c3ccccc3Cl)noc1C)CS(=O)(=O)C2 | -25%
CC1CCC(N2CC(=O)N(CCC3=CCCCC3)C(c3ccc(F)cc3)C2=O)CC1 (centres undefined) | 0%
Cc1ccc(NC(=O)COc2nc(C)cs2)cc1 | 10%
O=C(COC(=O)CSc1ccccc1)NCCNC(=O)COC(=O)CSc1ccccc1 | -12%
COC(=O)C1=C(C)NC(=O)CC1c1ccccc1OC (centres undefined) | 25%
O=C(CN(C(=O)c1csnn1)c1ccc(F)cc1)NCCc1ccccc1 | -2%
N#C/C(=C/c1cc[nH]c1)C(N)=S | 0%
CCn1c(SCC(=O)N/N=C/c2ccc(O)c(OC)c2)nc2ccccc21 | 1%
COc1ccc(-n2nc(C(=O)NCCCOC(C)C)c3c4ccccc4n(C)c3c2=O)cc1 | -11%
O=C(CNCc1ccccn1)Nc1cc(C(F)(F)F)ccc1N1CCOCC1 | 3%
COc1cccc(NC(=O)Cn2c(CCC(=O)O)ccc2-c2ccc(C)cc2)c1 | -26%
COCCCNCCC(CCC(C)C)c1ccc2c(c1)OCO2 (centres undefined) | -15%
COc1ccccc1C(=O)Nc1nnc(-c2ccc3c(c2)CCCC3)o1 | 5%
CCNc1nc(N)nc(Oc2ccc(OCCOc3ccccc3)nn2)n1 | 0%
Cc1ccc(SCC(=O)Nc2ccc(O)c(-c3nc4cc(C)ccc4o3)c2)cc1 | 15%

Quoted from the entries so far for reference:
SMILES | VDR inhibitor
COc1ccccc1C(=O)Nc1nnc(-c2ccc3c(c2)CCCC3)o1 | 5%
CCNc1nc(N)nc(Oc2ccc(OCCOc3ccccc3)nn2)n1 | 0%
Cc1ccc(SCC(=O)Nc2ccc(O)c(-c3nc4cc(C)ccc4o3)c2)cc1 | 15%

The results go on.
SMILES | VDR inhibitor
COc1ccccc1NC(=O)CN1CCN(CC(=O)Nc2ccc(OC)c(OC)c2)CC1 | -2%
O=C(c1cnccn1)N1CCC2(CCN(Cc3ccncc3)CC2)CC1 | 1%
COc1ccc(/C=C2/CCC(CN3CCOCC3)C2=O)cc1 (centres undefined) | ?
N#C/C(=C/c1ccccc1[N+](=O)[O-])C(=O)NCc1ccco1 | -14%
CCOc1ccc(NC(=O)C(C)Oc2ccc(C#N)cc2)cc1S(=O)(=O)N1CCCC1 (centres undefined) | -2%
COc1cc(/C=C2\SC(=S)N(CCC(=O)Nc3ccc(O)cc3)C2=O)cc(OC)c1OC | -21%
CCCn1c(N2CCN(CC(=O)c3c(C)n(C)c4ccc(OC)cc34)CC2)nc2c1c(=O)[nH]c(=O)n2C | -12%
COc1ccc(NC(=O)Nc2cc(C)ccc2F)cc1OC | 10%
Cc1ccc(NC(=O)CN2CCN(Cc3ccccc3)CC2)cc1 | -8%
Cc1nc(N2CCOCC2)c2c(C(=O)N(C)Cc3ccccc3)c(C)oc2n1 | -1%
NC(=O)[C@H]1CC2(CC(c3cccc(NC(=O)COc4ccc(Cl)cc4)c3)=NO2)CN1C(=O)c1ccc(Cl)cc1 (some centres undefined) | ?
COC(=O)c1ccccc1NC(=O)CCc1c(C)nc2c(c(C)nn2-c2ccccc2)c1C | 6%
COc1ccc(OCCSc2n[nH]c(N)n2)cc1 | -8%
Nc1ccc2cc3ccc(N)cc3nc2c1 | ?
CCOC(=O)CC(=O)CSC1=C(C#N)C(c2ccccc2OC)CC(=O)N1 (centres undefined) | -3%
CCn1c(C)nc2cc(C(=O)N3N=C(CCOC)CC3(O)C(F)(F)F)ccc21 (centres undefined) | -2%
COc1cc(OC)cc(C(=O)Nc2nc(CC(=O)NC(C)c3ccccc3)cs2)c1 (centres undefined) | -11%
O=C(COc1ccc2ccccc2c1)N1CCN(c2ccccc2)CC1 | -4%
Cn1c(=O)c2c(nc(SCC(=O)Nc3ccc(F)cc3)n2Cc2ccccc2)n(C)c1=O | -18%
Cc1noc(C)c1C(=O)N1CCC2(CCN(Cc3nccs3)CC2)CC1 | 0%

Next entries:
SMILES | VDR inhibitor
CN(c1ncnc2onc(-c3cccc(Cl)c3)c12)C1CCCCC1 | -24%
Cc1ccccc1CN1CCN(C(=O)c2cccc3ccccc23)CC1 | -9%
CCOC(=O)N1CCN(C(=O)c2nn(-c3ccc(C)cc3)c(=O)c3c2c2ccccc2n3C)CC1 | 4%
Cc1cccc(N2CCN(S(=O)(=O)c3ccc4c(c3)CCCN4C(=O)C3CCC3)CC2C)c1 (centres undefined) | -4%&-7%
COc1ccccc1N1C(=NC(=O)COc2ccccc2)SC2CS(=O)(=O)CC21 (centres undefined) | 7%
CCOc1ccc(CCNC(=O)COC(=O)c2cccc(S(=O)(=O)N3CCCC3)c2)cc1OCC | -23%
CC1CC(NC(=O)c2cnc3n(c2=O)CCS3)CC(C)(C)C1 (centres undefined) | -21%
CC(NC(=O)Cc1ccc(F)cc1)c1ccc(F)cc1 (centres undefined) | -12%
COc1ccc(C(=O)Nc2ccc(N3CCN(C(=O)C(C)C)CC3)cc2)cc1[N+](=O)[O-] | -19%
Cc1ccc(Cn2ccc(NC(=O)c3noc4c3CCCCC4)n2)cc1 | -10%
CC1(C)CC(=O)c2sc(NS(=O)(=O)c3cc(Cl)ccc3Cl)nc2C1 | -7%
O=C(OCC(=O)C12CC3CC(CC(C3)C1)C2)c1cccnc1 | -1%
C=CCc1ccccc1OCC(O)CN1CCN(CCN2C(=O)c3cccc4cccc(c34)C2=O)CC1 (centres undefined) | -13%
COCCOC1CCN(C(=O)C2CCC(=O)N(Cc3cccc(F)c3)C2)CC1 (centres undefined) | 10%
CCCCC(=O)Nc1ccc(C(=O)NCc2ccncc2)cc1 | 0%
O=C(CCn1cccn1)Nc1ccc2c(c1)OCO2 | 13%
CCc1ccc(CNC(=O)C2COc3ccc(OC)cc3C2)cc1 (centres undefined) | -8%
COC(=O)C1C2CC3c4[nH]c5cc(OC)ccc5c4CCN3CC2CC(OC)C1OC (centres undefined) | -4%
COc1ccccc1CNC(=O)CCc1c(C)nn(-c2ccc(N3CCOCC3)nn2)c1C | 15%
O=C(CN1CCCC1)Nc1ccc([N+](=O)[O-])cc1 | -27%

The list goes on; the last five above are carried over.
SMILES | VDR inhibitor
O=C(CCn1cccn1)Nc1ccc2c(c1)OCO2 | 13%
CCc1ccc(CNC(=O)C2COc3ccc(OC)cc3C2)cc1 (centres undefined) | -8%
COC(=O)C1C2CC3c4[nH]c5cc(OC)ccc5c4CCN3CC2CC(OC)C1OC (centres undefined) | -4%
COc1ccccc1CNC(=O)CCc1c(C)nn(-c2ccc(N3CCOCC3)nn2)c1C | 15%
O=C(CN1CCCC1)Nc1ccc([N+](=O)[O-])cc1 | -27%
CC(C)Oc1ccc(C(=O)NCc2cccnc2)cc1 | -7%
CCN(C(=O)COC(=O)c1cccnc1Nc1cccc(C(F)(F)F)c1)C1CCS(=O)(=O)C1 (centres undefined) | 25%
O=C(NC(=S)N1CCCCC1)C12CC3CC(CC(C3)C1)C2 | 0%
Fc1cccc(Nc2c3c(nc4ccccc24)CCC3)c1 | -15%
COc1ccc(Br)cc1C1NC(c2ccc3c(c2)OCO3)=CC(c2cc(Cl)ccc2O)N1 (centres undefined) | 50µM*
N#Cc1ccc(NC(=O)COCc2cc(-c3ccc4c(c3)OCO4)on2)cc1 | 4%
CCOc1ncccc1C(=O)OCC(=O)Nc1ccc(C)c(S(=O)(=O)N(C)C)c1 | -3%
Cn1c(=O)c2nc(SCC(=O)Nc3cc(Cl)ccc3Cl)n(C)c2n(C)c1=O | 10%
FC(F)(F)c1cnc(Oc2cccc3ccccc23)c(Cl)c1 | 9%
CCOc1ccc(OCC)c(NC(=O)Cn2ncc3c4ccccc4n(Cc4ccccc4)c3c2=O)c1 | 0%
CCCC(O)c1nc2ccccc2n1CCCOc1ccc(Cl)cc1 (centres undefined) | 15%
CCOC(=O)c1sc(NC(=O)c2cc(-c3ccccc3)nc3ccccc23)c(C#N)c1C | -19%
COC(=O)C1=C(C)N(Cc2ccco2)C(=O)N[C@@H]1c1ccco1 | -2%
COC(=O)c1c(C)oc2ccc(N(C(=O)c3ccncc3)S(=O)(=O)c3ccc(C)cc3)cc12 | 11%
Cc1ccc(N2CCN(C(=O)c3c(C)oc4nc(C)nc(N5CCCC5)c34)CC2)c(C)c1 | 6%
CCOc1ccc(N2C(=O)CC(NCCc3c[nH]c4ccccc34)C2=O)cc1 (centres undefined) | -20%
CC(=O)Nc1c(-c2ccccc2Cl)c(=O)c2ccccc2n1C | 13%
CCCCNC(=O)c1cc2c(-c3ccc(Cl)cc3)nn(C)c2s1 | 9%
Cc1ccc(NC(=O)c2ccc(-n3cncn3)c([N+](=O)[O-])c2)cc1 | -11%
NC(=O)c1ccsc1NC(=O)COC(=O)Cc1ccccc1Cl | 2%
